HNF4A DNA FP = change in binding of human HNF4 alpha to DNA; P41235; HNF4a-FITC DNA binding, fluorescence polarization, 1 h; 0.3% of 360,000 active; activity change, % at 10 µM; in the data active = activity change above about 30%, passing the limit was not always enough;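 also: controls were the assay level and a saturating level of protein; the project sought stronger binding though the title names inhibitors; some compounds called inactive have numbers as strong as hits; positive values seem to mean higher polarization but the record does not say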
Target sequence (P41235 whole entry, looked up): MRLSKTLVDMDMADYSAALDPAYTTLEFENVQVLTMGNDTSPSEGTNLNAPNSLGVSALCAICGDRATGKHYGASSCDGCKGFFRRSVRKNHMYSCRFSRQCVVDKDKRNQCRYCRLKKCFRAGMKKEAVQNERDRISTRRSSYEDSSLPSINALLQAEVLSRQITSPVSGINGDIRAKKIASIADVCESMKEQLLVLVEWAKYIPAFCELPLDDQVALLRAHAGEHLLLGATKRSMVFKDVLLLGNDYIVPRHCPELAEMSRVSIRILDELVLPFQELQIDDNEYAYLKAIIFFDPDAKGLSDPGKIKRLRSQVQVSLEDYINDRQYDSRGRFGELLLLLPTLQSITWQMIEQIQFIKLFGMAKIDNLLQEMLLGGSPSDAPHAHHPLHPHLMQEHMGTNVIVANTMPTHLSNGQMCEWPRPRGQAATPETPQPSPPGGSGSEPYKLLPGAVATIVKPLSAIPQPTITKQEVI
MLL AF4-AF9 inh = blocks AF4 peptide binding to human AF9; AID 651704; 0.47% of 350,000 active; AlphaScreen, biotin-AF4 peptide binding to FLAG-AF9; inhibition, % at 10 µM;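 active = every replicate reaching a set inhibition limit, whatever the replicate mean, cut at about 25% in these data; inconclusive = mean inhibition reaches that limit but some replicates miss it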;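 also: 0% = plate neutral control median and 100% = total signal loss; the record names both 10 and 1 µM as test concentration; the first replicate is given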
RanGTP-Impb inh = disruptors of Ran-importin-beta complex formation – biochemical, FRET, CFP-Ran, YFP-importin-beta, homogeneous, primary screen | cell-free CFP-Ran/YFP-importin-beta FRET ratio | inhibition, % (concentration not given with the values) | 1.1% of 300,000 active;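 active = most replicates above 15%; inconclusive = exactly half above 15%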;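 also: 0% = DMSO wells and 100% = Ran loaded with GDP instead of GTP; wells of about 40 µL received 100 nL stock; the first replicate is given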
UCH37 inh = inhibitors of human deubiquitinating enzyme UCH37. inhibition, % (test concentration not listed). purified proteasome/UCH37, Ub-AMC cleavage fluorescence. 0.33% of 330,000 active. AID 588478;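 active = mean of two replicates above 20%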;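 also: 0% = compound-free wells with enzyme and 100% = wells lacking proteasome; stock transfer was 100 nL into about 20 µL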
Target sequence (Q9Y5K5 whole entry, looked up): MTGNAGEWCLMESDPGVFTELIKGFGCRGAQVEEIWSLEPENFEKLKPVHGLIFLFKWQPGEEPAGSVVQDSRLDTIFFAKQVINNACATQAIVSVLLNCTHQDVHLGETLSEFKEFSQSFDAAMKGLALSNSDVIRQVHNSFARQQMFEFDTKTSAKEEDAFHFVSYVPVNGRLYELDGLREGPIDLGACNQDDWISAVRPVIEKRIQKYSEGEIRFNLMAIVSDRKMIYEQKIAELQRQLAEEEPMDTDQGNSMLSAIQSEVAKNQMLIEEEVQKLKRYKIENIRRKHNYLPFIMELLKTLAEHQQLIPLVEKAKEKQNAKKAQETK
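Reagent: Ub-AMC substrate; assay system: Proteasome-associated human UCH37 deubiquitinase; controls: no-proteasome and no-compound wells; read-out: % inhibition of Ub-AMC cleavage fluorescence; timing: 30 min preincubation with enzyme, 25 min cleavage at room temperature; signal: AMC fluorescence from Ub-AMC cleavage, excitation 355 nm, emission 460 nm; buffer or medium: Tris-HCl pH 7.4 plus ovalbumin, ATP-MgCl2, DTT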
Ecoli growth = blocks Escherichia coli growth; 0.21% of 330,000 active; OD600, 23 h; stronger effect = lower value; OD600 absorbance (concentration not given with the values);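 active = OD600 absorbance below the run mean of sample wells minus 3.6 SD, in any replicate, cut at about 0.56 in these data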;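 also: stock transfer was 300 nL into about 60 µL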
Vif A3G = HIV-1 Vif–A3G interaction blockers – biochemical, TR-FRET, GST-Vif 1-94, biotin-A3G peptide, dose response retest, primary screen (AID 1117319) | 0.57% of 260,000 active | one-dose inhibition, %; IC50 in µM for titrated hits | TR-FRET GST-Vif / biotin-A3G peptide binding; higher % means a stronger effect; test concentration not given here; strong numbers were not always called active;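 active = above the screen mean plus three standard deviations and confirmed in dose response; inconclusive = results disagree or hit not tested in dose response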;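 also: Vif residues 1-94 fused to GST binding biotinylated APOBEC3G peptide 110-148; 0% = full assay without inhibitor and 100% = GST in place of GST-Vif; retest series ran down from 100 µM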
FGF22 binding = binders of recombinant human FGF22 by thermal shift. AID 651658. SYPRO orange fluorescence; percent of sucrose octasulfate shift, DMSO zero. calls only at 9.99 µM. Q9HCT0. 1.5% of 340,000 active;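 active = melting point raised past a set limit in the mean and every replicate; inconclusive = no clear call; three in four hits are not shown here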
Target sequence (Q9HCT0 whole entry, looked up): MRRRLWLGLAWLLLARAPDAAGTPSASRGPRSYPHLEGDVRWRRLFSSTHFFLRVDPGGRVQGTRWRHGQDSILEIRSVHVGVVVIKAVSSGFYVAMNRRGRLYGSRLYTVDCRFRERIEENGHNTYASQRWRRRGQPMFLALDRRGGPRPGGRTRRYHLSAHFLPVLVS
The depositor's hits bear a star; i = inactive; ? = inconclusive; . = not tested or not shown; & = joins results of further samples. An excerpt; the hit share may differ from the screen's.

Molecule	HNF4A DNA FP	MLL AF4-AF9 inh	RanGTP-Impb inh	UCH37 inh	Ecoli growth	Vif A3G	FGF22 binding
Cc1ccc(-n2nc(C)c3c2OC(N)=C(C#N)C3c2ccoc2)cc1 (stereo unspecified)	0.7	.	-1.7	0.5	0.76	16%	.
Cc1noc(C)c1C(=O)N1CCC1(C)C(=O)NS(=O)(=O)c1ccc(Br)cc1 (stereo unspecified)	1.9	0.8	.	.	.	.	i
CC(C)(C)OC(=O)NCc1ccc(NC(=O)c2nc[nH]c2C(=O)N[C@@H](Cc2ccccc2)C(=O)OCc2ccccc2)cc1	0.1	3.2	-3.0	0.0	.	-2%	i
COC(=O)c1ccc(C(=O)Nc2cc(Cl)ccc2Cl)cc1NC(=O)c1ccc(N(C)C)cc1	0.3	-1.5	-1.4	0.7	0.7	1%	i
CCOc1nonc1C(=N)/C(C(C)=O)=C(\C)O	-0.8	.	4.8	-4.1	0.72	17%	.
Cc1ccc(-c2cn3cccnc3n2)cc1NC(=O)c1ccc(Br)o1	-3.4	.	3.8	i	0.7	10%	.
CCCc1cc(C(=O)Nc2cccnc2Cl)no1	-0.7	.	2.1	1.1	0.65	-4%	.
Cc1cc(C(F)F)n2nc(C(=O)Nc3cccnc3Cl)nc2n1	-2.7	.	-0.6	1.4	0.69	-6%	.
COc1ccc(C(=O)NC(=O)COC(=O)c2ccc(C)o2)cc1	-2.2	-9.6	.	4.6	0.68	-1%	i
O=C(Nc1cccc2ccccc12)NC1CCCc2ccccc21 (stereo unspecified)	1.1	.	6.0	1.9	0.74	17%	.
CC(=O)NC(CC(=O)OCc1ccc([N+](=O)[O-])cc1)c1ccccc1 (stereo unspecified)	1.1	-0.8	4.1	3.8	0.71	.	i
COC(=O)[C@]12CCCCC=C1N(CCC1=CCCCC1)C(=O)[C@H](CC(=O)NCCCCc1ccccc1)C2	-2.8	0.7	.	.	.	.	i

(listing goes on)
Molecule	HNF4A DNA FP	MLL AF4-AF9 inh	RanGTP-Impb inh	UCH37 inh	Ecoli growth	Vif A3G	FGF22 binding
COc1ccc(C(=O)N(C)Cc2ccccn2)cc1OC1CCN(C(C)C)CC1	-2.1	-0.1	-0.4	1.7	0.7	4%	.
COC(=O)CCCC[C@@H]1O[C@H](CCc2ccccc2)Cc2[nH][nH]c(=O)c21	-1.2	0.8	.	.	.	.	i
Cc1[nH]c2ccccc2c1C(=O)CN1CCC2(CC1)OCCO2	1.3	.	1.1	1.9	0.67	-6%	.
Cc1occc1C(=O)N1CCCC(N2CCN(c3cccc(C(F)(F)F)c3)CC2)C1 (stereo unspecified)	-0.9	6.0	-1.4	3.3	0.71	.	i
COc1ccc(C=C2SC(=S)NC2=O)cc1	18	-4.7	.	.	.	3%	i
Cc1c(OCC(=O)NC2CCN(Cc3ccccc3)CC2)ccc2c3c(c(=O)oc12)CCC3	3.9	0.8	-2.1	-9.0	0.7	6%	i
O=C(NC(c1ccccc1)c1ccc2ccccc2n1)C1CCN(Cc2ccc(Oc3ccccc3)cc2)CC1 (stereo unspecified)	1.1	2.0	.	.	.	.	i
Cc1ccc(OCCNC(=O)c2cccc(C)c2)cc1	-3.1	-3.2	-1.3	2.0	0.68	-4%	i
O=C(COC(=O)CNC(=O)c1ccc(Cl)cc1)Nc1ccc2c(c1)OCCO2	-5.1	.	5.6	1.3	0.63	.	.
Cc1ccc(C)c(S(=O)(=O)N2CCCC2CNC(=O)C(=O)NCCc2ccccc2)c1 (stereo unspecified)	1.3	-1.2	-2.6	1.5	0.66	-3%	i
COc1cccc(CNC(=O)C2CCN(C(=O)N(C)C)CC2)c1	2.5	.	-1.8	2.1	0.64	-2%	.
Cc1n[nH]c(C)c1S(=O)(=O)N1CCCC(C(=O)Nc2nccs2)C1 (stereo unspecified)	2.4	.	2.5	0.3	0.67	-5%	.

Compound profiles, as listed above. Order of screens: HNF4A DNA FP	MLL AF4-AF9 inh	RanGTP-Impb inh	UCH37 inh	Ecoli growth	Vif A3G	FGF22 binding
Record of CC(=O)NC(CC(=O)OCc1ccc([N+](=O)[O-])cc1)c1ccccc1 (stereo unspecified) : 1.1	-0.8	4.1	3.8	0.71	.	i
Record of Cc1[nH]c2ccccc2c1C(=O)CN1CCC2(CC1)OCCO2 : 1.3	.	1.1	1.9	0.67	-6%	.

Next section
Molecule	HNF4A DNA FP	MLL AF4-AF9 inh	RanGTP-Impb inh	UCH37 inh	Ecoli growth	Vif A3G	FGF22 binding
Cc1cc(C(=O)N2CCCC(N3CCN(c4ccc(F)cc4)CC3)C2)c(C)o1 (stereo unspecified)	2.6	2.5	3.2	0.8	0.62	.	i
COC(=O)[C@]12CCCCC=C1N(Cc1ccc3c(c1)OCO3)C(=O)[C@H](CC(=O)NCC13CC4CC(CC(C4)C1)C3)C2	-2.2	0.9	.	.	.	.	i
Cc1ccccc1N=CC1=C(O)c2ccccc2C1=O	0.5	3.6	1.9	9.6	0.71	19%	i
Cc1cc(C)n(CC(O)COc2ccccc2[N+](=O)[O-])n1 (stereo unspecified)	-4.4	.	1.3	1.0	0.67	11%	.
CCCCN(C)C(=O)c1ccc(Nc2nc(C(N)Cc3ccccc3)cs2)nc1 (stereo unspecified)	-2.9	9.4	.	.	.	.	i
Cc1ccn2cc(CCNS(=O)(=O)c3ccc(F)c(C(F)(F)F)c3)nc2c1	-2.4	-2.4	?	2.0	0.78	-4%	i
CC(=O)c1cccc(OCc2cc(C(=O)NC(C)Cc3cccnc3)no2)c1 (stereo unspecified)	-1.5	-3.8	0.1	0.5	0.72	5%	i
O=C(CC1CC2CCC1C2)NC1CCCCCCC1 (stereo unspecified)	1.7	-2.1	2.6	4.3	0.64	-4%	i
O=C(Nc1ccc(Cl)c(Cl)c1)NC1CCS(=O)(=O)C1 (stereo unspecified)	0.1	-6.1	3.6	2.7	0.64	.	i
COc1ccc(OC)c(NC(=O)COc2ccc3c(c2)CCC3)c1	-1.9	3.7	.	-0.8	0.7	-5%	i
O=C(CCC(=O)c1ccc(Cl)cc1)NCc1ccccc1	3.1	-1.0	2.0	1.7	0.65	.	i
CC[C@H](C)C(=O)O[C@H]1C[C@@H](C)C=C2C=C[C@H](C)[C@H](CC[C@@H]3C[C@@H](O)CC(=O)O3)[C@H]21	0.7&2.1	3.4	2.8	4.2&1.3	0.65	?	i

Later entries
Molecule	HNF4A DNA FP	MLL AF4-AF9 inh	RanGTP-Impb inh	UCH37 inh	Ecoli growth	Vif A3G	FGF22 binding
CC1CN(C(NC(=O)C(C)(C)C)C(Cl)(Cl)Cl)CC(C)O1 (stereo unspecified)	0.0	.	6.3	-0.6	0.74	13%	.
CC(C)CN(C(=O)Cn1c(Cl)nc2c1c(=O)n(C)c(=O)n2C)C1CCS(=O)(=O)C1 (stereo unspecified)	-2.8	-0.4	-5.2	-2.5	0.73	3%	i
O=C(NC1CCCCC1)C(c1ccc(Cl)cc1)N(C(=O)c1ccccn1)c1cccnc1 (stereo unspecified)	.	.	2.2	1.2	0.71	68%	.
C[C@@H]1CN([C@@H](C)CO)C(=O)CCCn2nncc2CO[C@H]1CN(C)Cc1cccc(C(F)(F)F)c1	-1.3	-3.6&1.2&-1.1	.	.	.	.	i
CC(=O)Nc1cc(C(F)(F)F)ccc1OCC1CCCO1 (stereo unspecified)	-4.6	.	.	1.4	0.75	15%	.
Nc1cc(C(=O)OCC(=O)Nc2cccc(S(=O)(=O)N3CCOCC3)c2)ccc1Cl	-1.2	1.2	.	-8.3	0.68	.	i
O=C(CSc1nnc(-c2cccs2)n1CC1CCCO1)N1CCCC1 (stereo unspecified)	1.8	-0.3	1.9	0.1	0.69	-8%	i
COCCCN1C(=O)C(=O)/C(=C(/O)c2ccc(OC(C)C)cc2)C1c1ccc(O)c(OC)c1 (stereo unspecified)	.	.	4.5	1.3	.	0%	.
Cc1cc(NC(=O)CSc2nccn2-c2ccc(Cl)cc2)no1	1.3	.	2.8	4.6	0.68	-3%	.
Fc1ccc(CSc2nnc(-c3ccco3)o2)cc1	-3.5	1.0	?	6.1	0.66	20%	i
Cc1ccc2nc(N(CCCN(C)C)C(=O)c3ccc(S(=O)(=O)N(C)C)cc3)sc2c1	1.5	.	2.7	0.7	0.68	-3%	.
COC(=O)c1sc(NC(=O)CCCn2nc([N+](=O)[O-])cc2C)c(C(=O)OC)c1C	-1.0	.	-1.7	2.3	0.65	.	.

The list continues:
Molecule	HNF4A DNA FP	MLL AF4-AF9 inh	RanGTP-Impb inh	UCH37 inh	Ecoli growth	Vif A3G	FGF22 binding
CC(=O)Nc1ccc(S(=O)(=O)N2CCN(c3cc(C)nc4ccccc34)CC2)cc1	-0.2	.	5.0	5.0	0.74	-6%	.
O=C(Nc1ccccc1C(=O)NC1CCCC1)NC1CCCC1	0.7	.	3.5	-1.7	0.68	-3%	.
COc1ccc(C)cc1Nc1n[n+](-c2ccccc2)c(-c2c(OC)ccc3ccccc23)s1	-1.1	40*	.	4.3	.	.	i
CC1CCCC(C)N1C(=O)Cn1cc(C#N)c2ccccc21 (stereo unspecified)	1.9	-1.8	-1.3	4.4	0.67	3%	.
CC(NC(=O)C(C)N1CCN(S(=O)(=O)c2ccccc2)CC1)c1ccccc1 (stereo unspecified)	-1.1	-1.5	.	2.5	0.7	11%	i
Cc1cc(NC(=O)CSc2nnc(-c3ccco3)n2C)no1	1.3	1.3	.	0.4	0.7	-11%	i
Cc1cc(=O)oc2cc3c(cc12)OCCO3	-1.2	.	?	-243	0.72	20%	.
O=C(NCC(=O)N1CCN(S(=O)(=O)c2cccc(F)c2)CC1)c1ccc(Br)o1	0.5	-2.5	-2.4	3.1	0.69	5%	i
CC#CC[N+](C)(C)CC(=O)c1ccccc1	2.0	3.4	-1.2	0.5	0.69	-5%	i
Fc1ccccc1Cc1noc(CN2CCC(OCc3cccnc3)CC2)n1	0.7	0.4	-1.7	-0.5	0.68	8%	i
Cc1ccc(CN2C(=O)N/C(=C\c3ccc(-c4ccc(C(=O)O)cc4C)o3)C2=O)cc1	-14	-2.5	.	.	.	?	i
CN1C(=O)N(S(=O)(=O)c2ccc(F)c(F)c2F)C(=O)C1(C)C	3.1	.	-3.1	1.2	0.68	5%	.

(list continues)
Molecule	HNF4A DNA FP	MLL AF4-AF9 inh	RanGTP-Impb inh	UCH37 inh	Ecoli growth	Vif A3G	FGF22 binding
CCN(CC)C(=O)CSc1nnc(-c2cc3ccccc3cc2O)n1CC	1.0	.	4.0	1.6	0.68	6%	.
Cc1ccc([N+](=O)[O-])c(OCCCN2CCC(Cc3ccccc3)CC2)c1	-4.2	1.9	5.1	3.7	0.58	.	.
Nc1c(-c2cccc(Cl)c2)cnc2c(-c3ccccc3)cnn12	-1.5	-0.2	2.3	-198	0.7	-3%	i
COc1ccccc1S(=O)(=O)N(C)C[C@@H]1OCc2cnnn2CCCC(=O)N([C@@H](C)CO)C[C@@H]1C	1.5	0.2&-4.0	.	.	.	7%	i

Screening data: PubChem, several laboratories
